Assay outcomes as filed in PubChem BioAssay.
MgrA-DNA mod: S. aureus MgrA activity modulators, primary screen, biochemical, S. aureus Newman, fluorescence polarization. MgrA-DNA binding. inhibition, %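 (about 10 µg/mL by stock and volumes)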. hit rate 0.13% among 84,000;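 active = above 50% in either of two replicates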;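 also: 0% = protein plus DNA without compound and 100% = DNA alone without protein; higher means less MgrA bound to DNA so lower polarization; one replicate is shown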
S aureus helic: inhibitors of S. aureus replicative helicase, primary screen, biochemical, fluorescence unwinding readout | replicative DNA helicase (DnaC/DnaB), Staphylococcus aureus | purified S. aureus helicase, fluorescence unwinding assay; about half of the hits fall short of the stated cut | inhibition, %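 (tested at about 80 µM)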 | hit rate 0.05% among 120,000 | AID 485395, 2010;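 active = both duplicates at 50% or more, or one of them with a favoured structure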;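 also: 0% = mean of negative control wells and 100% = mean of positive control wells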
Starred values were filed as active, the others as inactive; x = not tested or not shown; & = joins results of further samples.

Start of the listing, in advance (two entries):
compound | MgrA-DNA mod | S aureus helic
Cc1cc(OC(=O)N(C)C)nc(-c2ccc(C)c(Cl)c2)n1 | -2.5 | x
CCOC(=O)C1=C(c2ccccc2)OC(N)=C(C(=O)OCCOC)C12C(=O)Nc1ccc(Br)cc12 (stereo not given) | 2.4 | x

The whole of this part (from the top)
compound | MgrA-DNA mod | S aureus helic
Cc1cc(OC(=O)N(C)C)nc(-c2ccc(C)c(Cl)c2)n1 | -2.5 | x
CCOC(=O)C1=C(c2ccccc2)OC(N)=C(C(=O)OCCOC)C12C(=O)Nc1ccc(Br)cc12 (stereo not given) | 2.4 | x
O=C(c1cc(S(=O)(=O)N2CCC3(CC2)OCCO3)ccc1F)N1CCC2(CC1)OCCO2 | -1.6 | 9
Fc1cccc(NC2=NCCS2)c1 | -2.3 | x
COc1ccc(C2N3CCCN2CC3)cc1 (stereo not given) | x | -7
O=C1NC(=S)NC(=O)C1=C/C=C/c1ccccc1 | 16 | x
NC(=O)c1ccc(N=Cc2c(O)n(Cc3ccco3)c(=O)[nH]c2=O)cc1 | 11 | -1
CN1CCN(P2(=O)CC=CC2)CC1 | x | 6
COc1ccccc1N1CCN(Cc2ccccc2F)CC1 | -2.5 | x
O=S(=O)(c1ccc(NC2CN3CCC2CC3)nc1)N1CCCC1 (stereo not given) | x | -9
Cc1nc2cc(Cl)ccc2c(=O)n1-c1cccnc1 | 2.0 | x
Cc1ccc(C(=O)N2c3ccc(C)cc3[C@@H]3CN(C)CC[C@H]32)cc1 | -3.8 | 20
CC1(C)CC2(CCCN(CC#N)C2)CCS1 (stereo not given) | x | 3
C[C@H]1CCC/C=C/C2C[C@H](O)C[C@H]2[C@H](O)/C=C/C(=O)O1 (stereo not given in full) | 1.1 | x
CS(C)=C1C(=O)NC(=O)N(CCc2ccc(F)cc2)C1=O | 0.5 | -9
CC12CN3CC(C)(C1=O)C(=O)C(C)(C3)C2=O | x | -8
CC(C(=O)c1ccccc1)N1CCOCC1 (stereo not given) | -2.4 | x
O=C(CN1CC(c2ccccc2)CC1=O)Nc1ccccc1 (stereo not given) | -0.6 | 12
N=C1c2ccccc2CN1c1ccc(Br)cc1 | 1.2 | 5
C[n+]1ccc(-c2cc[n+](C)cc2)cc1 | 1.1 | 11
CCCCn1c(C)c(C(=O)OCC)c2cc(OC(=O)c3ccc(F)cc3)c3ccccc3c21 | -0.1 | x
Cc1c(C)c(C)c(CCN)c(C)c1C | -1.3 | x
COc1ccc(N2C(=O)NC(=O)C(Cc3ccc(O)c(OC)c3)C2=O)cc1 (stereo not given) | -0.1 | -6
O=C1CC(c2cccc(Br)c2)c2c(c3ccccc3oc2=O)O1 (stereo not given) | 14 | 17
O=c1[nH]c2c(c(=O)n1C1CCCCC1)CCC2 | 0.6 | -3&15
CCOC(=O)COc1ccc(/C=C2\C(=O)NC(=S)N(c3ccc(OC)cc3)C2=O)cc1OC | 8.1 | x
CN1CC(C#N)C2(O)c3ccccc3CCC2C1 (stereo not given) | -0.9 | -1
CCN(CC)P1(=O)COc2ccccc2OC1 | -1.6 | 17
COC[C@H]([C@@H](O)[C@@H](O)C(=O)NCC[C@@H](C)c1nc(/C=C/C[C@H]2OC3(C[C@H](O)[C@H]2C)OC([C@@H](C[C@@H](O)[C@@H](C)[C@@H](O)[C@@H](C)/C=C(C)/C(C)=C/C=C/C(C)=C\C#N)OC)[C@@H](OP(=O)(O)O)C3(C)C)co1)N(C)C (stereo not given in full) | -0.5 | x
CC(N)C(O)c1ccc(O)c(O)c1 (stereo not given) | 3.9 | x
CC(C)(C)NCC(O)c1cc(Cl)c(N)c(Cl)c1 (stereo not given) | 1.5 | x
COc1ccc2c(c1OC)C(=O)O[C@@H]2[C@H]1c2cc3c(cc2CCN1C)OCO3 | -1.3 | x
CN1CCN(Cc2cc(=O)n3ccsc3n2)CC1 | x | -16
CN(C)C(=O)Oc1ccc(-c2nnco2)cc1 | x | 13
CCN1CCN(Cc2ccc(C)cc2)CC1 | 2.8 | 5
COCc1cc(=O)oc2cc(OC(=O)N(C)C)ccc12 | -2.0 | x
C=C1CC2(C)C(=CC1=O)CCC1C2CCC2(C)C(OC(=O)OCC)CCC12 (stereo not given) | 6.1 | x
CC12CCC3C(CC4OCC35CCC(O)C[C@]45Br)C1CCC2OC(=O)c1ccccc1 (stereo not given in full) | -1.9 | x
CCS(=O)(=O)N1CCCC(C(=O)N2CCC3(CC2)OCCO3)C1 (stereo not given) | 4.7 | 14
CC1=C2[C@H]3OC(=O)[C@@H](C)[C@@H]3CC[C@@]2(C)C=CC1=O | 0.4 | x
C=CCN(CC=C)Cc1c[nH]c2ccccc12 | x | 6
COc1ccc(CN2CCNCC2)cc1 | 0.8 | 15
c1ccc(CSc2nnc(-c3ccccc3)o2)cc1 | 2.0 | 15
O=c1cccc2n1CC1CC2CN(c2ccc3nnc(-c4ccccc4)n3n2)C1 (stereo not given) | x | 28
CC1=CCCC2C1(C)CCC(C)C2(C)CC/C(C)=C/C[n+]1cn(C)c2c(N)ncnc21 (stereo not given) | 0.2 | x
CCCCOc1ccc(C2C(C#N)=C(N)Oc3c2c(=O)oc2ccccc32)cc1OC (stereo not given) | -0.1 | x
COc1ccc(-n2c(=S)[nH]c3ccccc3c2=O)cc1 | 4.0 | 11
O=C1NC(=O)C(=Cc2ccc(Br)cc2)C(=O)N1 | 5.2 | 12
N#CCCn1cc(C=C2C(=O)NC(=O)NC2=O)c(-c2ccccc2)n1 | x | -10
CN1CCCC(C(=O)c2ccccc2)C1 (stereo not given) | -1.1 | 10

Going on with the list:
compound | MgrA-DNA mod | S aureus helic
Cc1cccc(NC2=NCC(C)S2)c1C (stereo not given) | x | 11
CCN1CCC(N2CCCCC2)CC1 | -3.2 | 5
CN(C)C(=O)Oc1nnc(SCc2ccccc2)n1-c1cccc(Cl)c1 | -2.9 | x
Cc1cc(N2CCNCC2)c2ccccc2n1 | -1.5 | x
N#CC(C#N)=Cc1ccc(OC(F)F)cc1 | x | 13
CCN(CC)C(=O)COCC1CCCN2CCCCC12 (stereo not given) | -1.7 | -3
O=C(CCN1CCOCC1)NC=Nc1cccnc1 | -0.3 | -6
O=C(O)C(O)(c1ccc(Br)cc1)c1ccc(Br)cc1 | 2.5 | -8
CC1CCC2C(C)C(=O)OC3OC4(C)CCC1C32OO4 (stereo not given) | x | -12
N#CCc1cccc(CC#N)c1 | 0.1 | x
N#CC1(C(=O)O)CC2c3ccccc3C1c1ccccc12 (stereo not given) | x | 2
O=C(CSC1=NCCS1)Nc1ccc(Br)cc1C(=O)c1ccccc1Cl | -1.3 | 14
CC(C)(C)C(=O)c1cn(CC(=O)NCc2ccco2)c2ccccc12 | -2.2 | 9
NCCc1nc2ccccc2[nH]1 | -1.7 | 8
CC1CN(Cn2nc(C(=O)O)c3ccccc32)CC(C)O1 (stereo not given) | x | -2
CCC1=Nc2cc(C(=O)N3CCC4(CC3)OCCO4)ccc2Sc2ccccc21 | -1.3 | 10
COc1ccc(OC)c(/C=C2\C(=O)C3CCN2CC3)c1 | -1.4 | 13
CNC(=O)O/N=C1\CC(C)(C)Cc2csc(SC)c21 | x | 23
C=CCSc1nnc(OC(=O)N(C)C)n1-c1cccc(C(F)(F)F)c1 | -2.5 | x
CCOC(=O)C1C(=O)N(C)C2(C)CC1c1ccccc1O2 (stereo not given) | x | 4
C/C(=C\c1ccc(N(C)C)cc1)[N+](=O)[O-] | -3.3 | x
Cc1ccc2c(c1)N(C(=O)CCC(=O)N1CCC3(CC1)OCCO3)CC(C)O2 (stereo not given) | 0.8 | -1
CN1C2C=C(N(C(=O)c3ccc(Cl)cc3)c3ccccc3)CC1CC2 (stereo not given) | -0.5 | -1
C#CC[N+]12CN3CN(CN(C3)C1)C2 | x | 6
c1cc(C2CCNCC2)ccn1 | -2.1 | 3
CNC(=O)Oc1ccc(NC2=C(C(=O)OC)CSC2)cc1 | -1.1 | x
O=C1NC(=S)NC(=O)C1=Cc1ccncc1 | 1.6 | 0
O=c1[nH]ncc(Cl)c1Cl | 0.1 | x
COc1cc2c(cc1OC)C(C(=O)NC(C)C)C1CCCCN1C2=O (stereo not given) | x | 8
Nc1c(C(=O)NCC2CCCO2)c2nc3ccccc3nc2n1Cc1ccco1 (stereo not given) | x | 5
Cc1ccnc(NS(=O)(=O)c2ccc(N=Cc3c(O)n(C)c(=O)n(C)c3=O)cc2)n1 | 2.4 | 1
S=P1(N2CCOCC2)C2=C(CCC2)C2=C(CCC2)N1c1ccccc1 (stereo not given) | x | 3
COc1ccc(-n2c(CCC(=O)O)nc3ccccc3c2=O)c(OC)c1 | x | -66
C1CN(C23CC4CC(CC(C4)C2)C3)CCN1 | -1.1 | 3
CNC(C)C(=O)C12CC3CC(CC(C3)C1)C2 (stereo not given) | x | -26
C=CCOC(=O)C1=C(C)OC(N)=C(C#N)C12C(=O)Nc1ccc(Cl)cc12 (stereo not given) | 1.2 | x
CC[C@H]1CN2CCC1C[C@H]2[C@H](O)c1ccnc2ccc(OC)cc12 (stereo not given in full) | 1.2 | x
CC(Cc1ccc(O)cc1)NCC(O)c1cc(O)cc(O)c1 (stereo not given) | -4.0&14 | x
Cc1ncc(CNC(=O)N(CCCl)N=O)c(N)n1 | -5.3 | x
O=C(O)c1ccccc1-c1c2cc(Br)c(=O)cc-2oc2[c]([Hg])c(O)c(Br)cc12 | 21&30 | x
C1CNC2NCCNC2N1 (stereo not given) | 0.6 | 0
N=C1c2ccccc2CN1c1ccc(O)c(C(=O)O)c1 | x | 0
COc1nc(NCCC2=CCCCC2)nc(N2CC3CC(C2)c2cccc(=O)n2C3)n1 (stereo not given) | -0.5 | -4
COc1cc(C=C2C(=O)NC(=O)NC2=O)ccc1OS(=O)(=O)c1ccccc1 | 2.9 | x
O=C(CNC1CCCCC1)N1CCC2(CC1)OCCO2 | 0.7 | -22
O=C(COc1ccccc1)N1CCN(CC(O)COc2ccccc2)CC1 (stereo not given) | 0.6 | 2
COc1cc2c(cc1OC)[C@@]13CCN4CC5=CCOC6CC(=O)N2C1[C@H]6[C@H]5C[C@H]43 (stereo not given in full) | -0.3 | x
O=C(c1cc2c(Cl)nc3ccccc3c2s1)N1CCC2(CC1)OCCO2 | -0.2 | 16
COc1cc2c(cc1O)CC1c3c(c(OC)c(OC)c(OC)c3-2)CCN1C (stereo not given) | 3.8 | 11
CCN1C(=O)NC(=O)/C(=C\c2cn(CC(=O)NCC3CCCO3)c3ccccc23)C1=O (stereo not given) | x | -91

Remaining list, next part.
Value order: MgrA-DNA mod, S aureus helic
CN(C)C(=O)Oc1cccc(N)c1
    -1.8, x
C/C(=C\c1cccc([N+](=O)[O-])c1)[N+](=O)[O-]
    -4.1, x
O=C1NC(=S)NC(=O)C1=C/C=C/c1ccco1
    x, -91
NCCSc1c[nH]c2ccccc12
    x, -15
CN1C(=O)C(=Cc2ccco2)C(=O)N(C)C1=O
    10, 6
Nc1ccc(N2CCNCC2)cc1
    -4.9, -7
Cc1ccc2c(c1)N(CCC(=O)N1CCC3(CC1)OCCO3)C(=O)C(C)O2 (stereo not given)
    -3.3, -5
OCCCNc1c2c(nc3ccccc13)CCCC2
    8.1, 11
FC(F)(F)c1cccc(NC2=NCCCS2)c1
    -2.6, -1
COc1ccccc1CN1CCN(Cc2ccccc2OC)CC1
    -0.8, 9
C[C@@]12N[C@@H](Cc3ccccc31)c1ccccc12
    -0.2, x
Cn1c(=O)cc(OCC(=O)N2CCC3(CC2)OCCO3)c2ccccc21
    x, 25
N#CCC(=O)c1ccccc1
    -0.9, -17
O=c1c2ccccc2nc(COc2ccc(Cl)cc2)n1-c1ccc(Br)cn1
    -0.1, x
CCN(CC)C(=O)c1sc2nc3c(cc2c1N)CN(C)CC3
    x, 5
CNC(Cc1c[nH]c2ccccc12)C(=O)O (stereo not given)
    -1.4, x
c1cnc(N2CCNCC2)nc1
    -3.3, x
NCCC(O)C(=O)NC1CC(N)C(OC2OC(CN)C(O)[C@H](O)[C@@H]2N)[C@H](OC2O[C@H](CO)[C@@H](O)[C@@H]2O)[C@@H]1O (stereo not given in full)
    5.2, x
CC1(C)COC(Nc2ccccc2)=N1
    x, 16
C=C1N2CCC(CC2)C1(O)c1ccc(C)cc1 (stereo not given)
    -0.7, 1
O=C1NC(c2cccnc2)Nc2ccccc21 (stereo not given)
    x, -4
Cn1cc(C(=O)OCC(N)=O)c2ccccc21
    x, -1
C=C1C(O)(c2ccccc2)C2CC[N+]1(C)CC2 (stereo not given)
    -0.2, 2
CCCCC/C=C\C/C=C\C/C=C\C/C=C\CCCC(=O)NCc1ccc(O)c(OC)c1
    1.6, x
C=CCn1c(C)c(C(=O)OCC)c2cc(O)ccc21
    -0.1, -1
COc1ccc(CN2CCN(Cc3ccccc3)CC2)cc1
    -5.0, -2
CNC(=O)O/N=C(\N)Cc1csc2ccccc12
    x, -6
N#Cc1ccccc1Cn1cc(C(=O)c2cccs2)c2ccccc21
    8.3, -3
CC(=O)OCc1ccoc1C[N+](C)(C)C
    x, 18
N#Cc1c(/N=C/c2c(O)n(Cc3ccco3)c(=O)[nH]c2=O)sc2c1CCCC2
    2.8, 11
N=C1C(c2ccccc2)=C(O)CN1Cc1ccccc1
    5.2, 14

Entries of single compounds, looked up by structure. Values in the order: MgrA-DNA mod | S aureus helic
Nc1ccc(N2CCNCC2)cc1 is listed as -4.9 | -7
N#Cc1ccccc1Cn1cc(C(=O)c2cccs2)c2ccccc21 is listed as 8.3 | -3
Cn1c(=O)cc(OCC(=O)N2CCC3(CC2)OCCO3)c2ccccc21 is listed as x | 25
N#CCC(=O)c1ccccc1 is listed as -0.9 | -17
C[C@@]12N[C@@H](Cc3ccccc31)c1ccccc12 is listed as -0.2 | x

These rows are one share of the data (hit frequency here may not be typical).
